Assay outcomes from PubChem BioAssay.
Biofilm kill mix: clotrimazole potentiators killing C. albicans biofilm, primary screen, 4-compound mixtures. AID 1242, 2008. actives 0.02% (n = 120,000). C. albicans biofilm persisters + clotrimazole, fluorescence viability; primary screen in compound mixtures of four per well. inhibition, % at 7.6 µM;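 active = inhibition above 30.3% in the primary screen of four-compound pools, then above 30% when the compound was retested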;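 also: compounds exposed to preformed 24 h biofilms for 48 h; the number belongs to the whole pool; some results filed as inactive read as strong as hits; inactives centre near 12; 0% = biofilm with clotrimazole alone and 100% = kill control; retested singly at about 60 µM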
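Test system: C. albicans CAF4-2 wild-type biofilms; buffer or medium: RPMI/MOPS medium, pH 7.0; schedule: 24 h biofilm formation, then 48 h compound exposure, 37 °C; detection: Alamar Blue fluorescence; measure: percent inhibition of biofilm viability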
The depositor's hits bear a star.

SMILES	Biofilm kill mix
COc1ccc(N2Nc3n[nH]c(N)c3N2)cc1	23.6
COc1ccc(Nc2ccc(C(=O)O)cc2[N+](=O)[O-])cc1	12.4
O=C(O)CS(=O)(=O)c1ccc(C(F)(F)F)cn1	3.7
CCc1ccc(CNC(=O)C(=O)NCC2CCCO2)cc1 (stereo not drawn)	20.1
Cc1ccc(NC(=O)c2ccc(Oc3ncccn3)cc2)cc1	-10.3
O=C(NCc1ccc(Cl)cc1Cl)C1CC(=O)N(Cc2ccccc2)C1 (stereo not drawn)	16.5
Cc1ccccc1NC(=O)Oc1cccc(OC(=O)c2ccccc2)c1	20.3
COc1ccccc1OCCNC(=O)c1cc([N+](=O)[O-])cc([N+](=O)[O-])c1	11.2
O=C(CSc1ccc(-c2ccco2)nn1)c1cccc([N+](=O)[O-])c1	12.1
COc1ccc(NC(=O)N2CCCC2C(=O)NCc2ccc(C)cc2)cc1 (stereo not drawn)	7.5
COc1ccc(C2=NN(C(=O)CCCC(=O)O)C(c3cn(-c4ccccc4)nc3-c3ccccc3)C2)cc1 (stereo not drawn)	9.7
CCCCOC(=O)c1cccnc1	1.1
CC1CCCCC1NC(=O)c1ccc(CSc2nc3ccncc3[nH]2)cc1 (stereo not drawn)	18.1
COC(=O)c1cccc(CN2C(=O)SC(Nc3ccc(C)cc3)C2=O)c1 (stereo not drawn)	11.1
COc1ccc(-c2nnc(NC(=O)c3cccs3)s2)c(OC)c1	18.1
CCOC(=O)c1c(C)[nH]c(C(=O)/C(C#N)=C/c2ccc(OCC)cc2)c1C	13.6
CCCCC(=O)OCC(=O)Nc1cccc(S(=O)(=O)NC2=NCCCCC2)c1	8.0
O=C(CCCl)N(Cc1nc2ccccc2c(=O)[nH]1)Cc1cccs1	22.2
Cc1onc(-c2c(F)cccc2Cl)c1C(=O)N1CCN(c2ncccn2)CC1	6.2
CC(Oc1ccc(Cl)cc1Cl)C(=O)NCCCCc1ccccc1 (stereo not drawn)	9.8
Cc1cc(NC(=O)CCC(=O)N(Cc2ccco2)C(C)(C)C(=O)NC2CCCCC2)no1	21.0
CC(=O)O[C@@H]1[C@@]2(C)O[C@H]2CC[C@]23O[C@H]2[C@H](OC3=O)C2=C(C)C(=O)O[C@@]21O	19.1
Cc1ccc(C(=O)Nc2sc(C)c(C)c2C(=O)c2ccccc2)cc1	15.9
Cc1cccc2nc(COc3ccc4ccccc4c3Br)cn12	11.6
CC1(C)C(=O)OC(c2cccn2-c2ccc([N+](=O)[O-])cc2)C(C)(C)C1=O (stereo not drawn)	5.2

The last 2 compounds of the part above lead into the next:
SMILES	Biofilm kill mix
Cc1cccc2nc(COc3ccc4ccccc4c3Br)cn12	11.6
CC1(C)C(=O)OC(c2cccn2-c2ccc([N+](=O)[O-])cc2)C(C)(C)C1=O (stereo not drawn)	5.2
O=C(/C=C/c1ccccc1)NCc1ccco1	10.9
CC(=O)c1ccc(-n2c(=O)[nH]c(=O)c3c(N)c(C(=O)c4ccc(Cl)cc4)sc32)cc1	16.0
O=c1cc(CCl)nc2sc3ccccc3n12	29.1
CCOc1ccc2c(c1)C(=O)c1cc(OCC(=O)O)ccc1-2	6.2
CCOC(=O)c1cnn(-c2ccccc2)c1-n1cccc1C(=O)C(=O)N(C)C	14.6
CC(C)(C)C1CCc2sc(C(=O)NNC(=O)CCl)cc2C1 (stereo not drawn)	16.1
COC(=O)C1CCN(C(=O)c2cc3c(=O)n4cccc(C)c4nc3n2Cc2ccccc2)CC1	13.0
CCc1cccc(C)c1NC(=S)N(CCCN1CCN(C)CC1)Cc1cccs1	17.8
CC[C@H](C)[C@@H]1NC(=O)c2cc([N+](=O)[O-])cc(I)c2NCC[C@@H](C(N)=O)NC(=O)[C@H](CCCN=C(N)N)NC1=O	21.7
C/C(=N\NC(=O)c1cc(C)[nH]n1)C(C)(C)C	12.5
COc1ccc(-c2nc(NC3=NCCCCC3)sc2C)cc1	7.6
CC(=O)N1CCC(=NNC(=O)c2cccs2)CC1	7.6
CC1CCN(C(=S)Nc2ccc(SC(F)F)cc2)CC1	12.2
CCOc1cc2c(cc1/C=C1/NC(=O)N(CC(=O)OC)C1=O)OCO2	4.8
COc1cc(-c2nnn(CC(=O)NCc3ccccc3)n2)cc(OC)c1OC	2.2
Cn1ncc2c(Sc3ccc(Cl)cc3)ncnc21	20.4
N#Cc1ccc(Cl)cc1NC(=O)CSc1nc2nc(-c3cccs3)cc(C(F)(F)F)c2c(=O)[nH]1	19.1
CCOC(=O)Cn1nc(C)c(NC(=O)CCc2ccccc2)c1C	16.1
Cc1cccc(NC(=O)c2c(C)nc3ccccn23)c1	21.1
CC(C)(C)c1ccc(/C=N/OCC(=O)NCc2ccc(F)cc2)cc1	7.8
CCCCNC(=S)N=Nc1c(O)n(Cc2ccccc2)c2ccccc12	22.2
NS(=O)(=O)c1ccc(CCNC(=O)c2cc(-c3cccs3)nc3ccccc23)cc1	17.5
COc1ccccc1CC(=O)Nc1ccc(Cl)cc1C(=O)O	-7.7
COc1ccc(NC(=O)COC(=O)CCCOc2ccc(Cl)cc2Cl)cc1	19.7
O=c1[nH]n2c(=O)c3c([nH]c2c1N=Nc1cccc(C(F)(F)F)c1)CCCC3	20.1
Continued.
SMILES	Biofilm kill mix
C/C(=N\OCC(=O)Nc1ccc(F)c(F)c1F)c1cc2ccccc2o1	15.4
O=C1CC(SC2=NCCS2)C(=O)N1c1ccc(Br)cc1 (stereo not drawn)	7.3
O=C(/C=C/c1ccccc1)c1ccc(NC2=NCCCS2)cc1	17.0
CCOC(=O)C1=C(C)Nc2sc(C(=O)c3ccc(OC)cc3)c(N)c2C1c1ccc(C(=O)OC)cc1 (stereo not drawn)	9.3
Clc1ccc(CN=C(Nc2ccccc2)NC2CCCCC2)cc1	4.1
CCOC(=O)CSc1ccc(C(=O)Nc2ccc(OC)cc2)cn1	5.3
CCN(c1cccc(C)c1)C(C(=O)Nc1ccc(OC)cc1)c1cc2c(cc1[N+](=O)[O-])OCO2 (stereo not drawn)	14.5
CCCn1c(CN2CCN(C(=O)OCC)CC2)nc2c1c(=O)n(C)c(=O)n2C	13.1
O=C(Nc1ccc(C(=O)O)cc1)Nc1cccc([N+](=O)[O-])c1	13.2
CCN(CC)CCC(c1ccc(OC)cc1)c1c(O)cc(OC)cc1OC (stereo not drawn)	12.5
O=C(N/N=C/c1cccnc1)c1cc2ccccc2o1	0.0
CCOC(=O)c1cc(C(=O)NN)c(C)nc1C	6.5
O=C(O)/C=C/C(=O)NNC(=O)c1ccc(Cl)cc1Cl	4.3
Cc1ccc(NC(=S)NCCCN2CCOCC2)cc1	13.6
O=C(N/N=C/C=C\c1cccc([N+](=O)[O-])c1)c1ccccn1	17.8
CCOC(=O)C1=C(CC)OC(N)=C(C#N)C1c1ccc(NC(C)=O)cc1 (stereo not drawn)	10.7
Cc1cccn2c(Nc3ccccc3)c(-c3ccccn3)nc12	5.9
COc1cc(/C=C(/NC(=O)c2ccccc2)C(=O)Nc2ccc(O)cc2)c([N+](=O)[O-])cc1OC	40.6
CC(C)C(C(=O)Nc1ccc2c(c1)OCCOCCOCCOCCO2)N1C(=O)c2ccccc2C1=O (stereo not drawn)	23.8
COCCNC(=O)C(=O)Nc1ccc(Cl)cc1C	7.5
CCOC(=O)/C(C#N)=C/Nc1ccsc1C(C)=O	19.9
O=C(O/N=C1/CCCc2occc21)c1ccc(F)cc1	14.7
COc1ccc(CNC(=O)c2cccc(NC(=O)c3ccccc3)c2)cc1	9.2
COc1ccc(S(=O)(=O)Nc2nc3ccccc3nc2Nc2ccc3c(c2)OCO3)cc1	-4.0
Cc1ncoc1C(=O)Nc1ncc([N+](=O)[O-])s1	13.3
The list continues.
SMILES	Biofilm kill mix
O=[N+]([O-])c1ccc(O)c(C=Nc2ccc3c(c2)OCO3)c1	18.6
Clc1ccc(-n2nnnc2-c2ccno2)cc1	7.1
Cc1ccc(C(=O)N/C(=C\c2ccco2)C(=O)NCc2cccnc2)cc1	4.8
Cc1ccc(NC(=S)N2CCN(S(=O)(=O)c3c(F)cccc3F)CC2)cc1C	18.9
Cc1ccc(C=Nc2cccnc2N)cc1	9.8
COc1nc(C)c2cc(C)oc2n1	13.8
Cc1ccc(-c2nc(Nc3ccc(N4CCOCC4)cc3)c3ccccc3n2)cc1	9.4
CN(C[C@H](Cc1ccccc1)N(C[C@@H](CC1CCCCC1)N(CCc1ccccc1)N=O)N=O)N=O	10.3
Cc1cc2c(sc3ccccc32)c(C)n1	14.3
CCCNC(=O)COC(=O)c1n[nH]c2ccccc12	16.1
Cc1cccc(OCc2nnc(SCc3cc(=O)[nH]c4ccccc34)n2-c2ccccc2)c1	3.8
Cc1ccc([N+](=O)[O-])cc1NC(=O)c1ccc(CSc2ccccc2)cc1	16.4
Nc1cc(S(=O)(=O)Nc2ccccc2Cl)ccc1N1CCOCC1	23.4
COc1cc(O)ccc1C=O	12.2
COc1ccccc1/C=C/C(=O)NCC(=O)N/N=C/c1ccccc1[N+](=O)[O-]	7.1
NC1=NN=C(N2N=C(c3ccc(Br)cc3)CC2(O)C(F)(F)F)n2ncnc2C1 (stereo not drawn)	10.5
COc1ccc(NS(=O)(=O)c2ccc(NC(=O)Cc3cccs3)cc2)cc1	20.1
CCn1c(=O)cc(OCC(=O)NCCc2ccc(OC)c(OC)c2)c2ccccc21	19.5
COc1cc(OC)cc(C(=O)NNC(=S)NCc2ccco2)c1	13.9
Cc1ccc(C)c(C(=O)NC(C)CCc2ccccc2)c1 (stereo not drawn)	15.0
CN(C)S(=O)(=O)c1cccc(NC(=O)COc2cccc(C#N)c2)c1	10.0
O=C1Nc2ccccc2N(O)N1c1cc(-c2ccc(Cl)cc2)[nH]n1	-1.4
CC(=O)N1N=C(c2cccc(Cl)c2)OC1c1cccc([N+](=O)[O-])c1 (stereo not drawn)	13.0
CCCCSc1nnc(-c2ccc(OC)cc2)n1C	-8.8
N#Cc1ccccc1Sc1ccccc1C(=O)OCC(N)=O	13.7
(next part)
SMILES	Biofilm kill mix
CCOC(=O)NC1(Nc2cccc(Cl)c2)Oc2ccccc2O1	19.6
Cc1cccc(C)c1NC(=O)CNC(=O)c1c(C)nn(C)c1Cl	1.3
CN(O)/C=C/C(=O)c1ccc(Br)cc1	13.3
CCOC(=O)CCCCC(=O)c1[nH]c(=O)[nH]c1C[n+]1ccccc1	14.7
CCCCN(CC)CCNC(=O)CN1C(=O)COc2ccc(S(=O)(=O)N3CCCC3)cc21	16.7
CCOc1ccc(OCC(=O)Nc2ccccc2C(F)(F)F)cc1	8.2
CCOC(=O)N1CCN(C(=S)NC(=O)C23CC4CC(CC(C4)C2)C3)CC1	13.3
CNC(=O)c1[nH]cnc1C(=O)Nc1ccc(OC)cc1	3.7
O=c1c(-c2ccc(O)cc2)coc2cc(O)cc(O)c12	11.7
O=c1oc2c(-c3ccc([N+](=O)[O-])cc3)cc(O)cc2s1	16.7
COc1ccccc1C(=O)Nc1ccc(S(=O)(=O)N2CCCCC2c2cccnc2)cc1 (stereo not drawn)	18.2
COCCCNC(=S)Nc1ccccc1[N+](=O)[O-]	0.9

Entries above containing an aryl methoxy group, in the order listed:
SMILES	Biofilm kill mix
COc1ccc(N2Nc3n[nH]c(N)c3N2)cc1	23.6
COc1ccc(Nc2ccc(C(=O)O)cc2[N+](=O)[O-])cc1	12.4
COc1ccccc1OCCNC(=O)c1cc([N+](=O)[O-])cc([N+](=O)[O-])c1	11.2
COc1ccc(NC(=O)N2CCCC2C(=O)NCc2ccc(C)cc2)cc1 (stereo not drawn)	7.5
COc1ccc(C2=NN(C(=O)CCCC(=O)O)C(c3cn(-c4ccccc4)nc3-c3ccccc3)C2)cc1 (stereo not drawn)	9.7
COc1ccc(-c2nnc(NC(=O)c3cccs3)s2)c(OC)c1	18.1
COc1ccc(-c2nc(NC3=NCCCCC3)sc2C)cc1	7.6
COc1cc(-c2nnn(CC(=O)NCc3ccccc3)n2)cc(OC)c1OC	2.2
COc1ccccc1CC(=O)Nc1ccc(Cl)cc1C(=O)O	-7.7
COc1ccc(NC(=O)COC(=O)CCCOc2ccc(Cl)cc2Cl)cc1	19.7
CCOC(=O)C1=C(C)Nc2sc(C(=O)c3ccc(OC)cc3)c(N)c2C1c1ccc(C(=O)OC)cc1 (stereo not drawn)	9.3
CCOC(=O)CSc1ccc(C(=O)Nc2ccc(OC)cc2)cn1	5.3
CCN(c1cccc(C)c1)C(C(=O)Nc1ccc(OC)cc1)c1cc2c(cc1[N+](=O)[O-])OCO2 (stereo not drawn)	14.5
CCN(CC)CCC(c1ccc(OC)cc1)c1c(O)cc(OC)cc1OC (stereo not drawn)	12.5
COc1cc(/C=C(/NC(=O)c2ccccc2)C(=O)Nc2ccc(O)cc2)c([N+](=O)[O-])cc1OC	40.6
COc1ccc(CNC(=O)c2cccc(NC(=O)c3ccccc3)c2)cc1	9.2
COc1ccc(S(=O)(=O)Nc2nc3ccccc3nc2Nc2ccc3c(c2)OCO3)cc1	-4.0
COc1nc(C)c2cc(C)oc2n1	13.8
COc1cc(O)ccc1C=O	12.2
COc1ccccc1/C=C/C(=O)NCC(=O)N/N=C/c1ccccc1[N+](=O)[O-]	7.1
COc1ccc(NS(=O)(=O)c2ccc(NC(=O)Cc3cccs3)cc2)cc1	20.1
CCn1c(=O)cc(OCC(=O)NCCc2ccc(OC)c(OC)c2)c2ccccc21	19.5
COc1cc(OC)cc(C(=O)NNC(=S)NCc2ccco2)c1	13.9
CCCCSc1nnc(-c2ccc(OC)cc2)n1C	-8.8
CNC(=O)c1[nH]cnc1C(=O)Nc1ccc(OC)cc1	3.7
COc1ccccc1C(=O)Nc1ccc(S(=O)(=O)N2CCCCC2c2cccnc2)cc1 (stereo not drawn)	18.2

A portion of the library. The share of hits here may be higher or lower than overall.
